# VACV mCherry inh: vaccinia inhibition (mCherry reporter) | Potency, µM (highest dose often 36.5 µM), for the others: at the top dose activity change, negative = inhibition, hits mostly inhibitors | hit rate 0.63% among 310,000 | Vaccinia virus mCherry reporter infection, fluorescence; about a quarter of the inactives have no number; active = well fitted inhibition curve with a large enough effect; inconclusive = small, poorly fitted or top-dose-only effect; inactive = no such curve, though single readings can be large or run the other way; tested in A549 cells; also: nearly all actives have a fitted effect of over 35% in size; inactives centre near -10
# Vaccinia Venus: inhibitors of vaccinia virus (Venus reporter) | Vaccinia virus Venus reporter expression, fluorescence | Potency, µM (series often up to 36.5 µM), for the others: at the top dose activity change, negative = inhibition, hits mostly inhibitors | hit rate 0.46% among 330,000; active means well fitted inhibition curve with a large enough effect; inconclusive means small, poorly fitted or top-dose-only effect; inactive means no such curve, though single readings can be large or run the other way; tested in A549 cells; also: nearly all actives have a fitted effect of over 30% in size; inactives centre near -10
# * = called active by the depositor; i = inactive; ? = inconclusive; nt = not tested or not shown; & = joins results of further samples; [ ] = dose if it differs, or a comment. % is scaled to controls: 0 for no effect and ±100 for the full control effect; potency is read from the fitted curve at half-maximal effect.
SMILES,VACV mCherry inh,Vaccinia Venus
Cc1ccc(C(=O)N/C(=C/c2cccs2)C(=O)NCc2ccco2)cc1,-10%,2%
O=C(c1ccc2c(c1)OCO2)N1CCC2(CC1)Oc1ccc(Cl)cc1C(=O)C21CC(c2ccccc2)=NO1 (configuration not stated),i,-18%
CCC(=O)c1ccc(OCC(=O)OCC(=O)N(CCC#N)c2ccc3c(c2)OCCO3)cc1,i,-1%
COc1cccc(N2CCN(C(=O)C3CCN(S(=O)(=O)c4cccc5nonc45)CC3)CC2)c1,1%,-6%
Cc1ccc(NC(=O)CCC(=O)N/N=C/c2cccs2)cc1C,-1%,-14%
CSc1ccc(S(=O)(=O)Nc2ccc(NC(C)=O)cc2)cc1,nt,-16%
CCOc1ccc(CCNC(=O)c2cc3c(=O)[nH]c4ccc(C)cc4c3s2)cc1OCC,-14%,-12%
COc1cccc(C(=O)NCC(=O)NCc2cc(=O)n(C)c(=O)n2C)c1,i,-6%
CNC(=O)c1ccsc1NC(=O)CN1C(=O)CCC1=O,i,1%
CCOC(=O)Cc1nn(C)c(=O)c2ccccc12,1%,6%
O=C(CSc1ccc(Cl)cc1)Nc1cccc(-c2nnc(-c3ccco3)o2)c1,-7%,-5%
CC(C)C(=O)NC(=O)COC(=O)/C=C/c1cccs1,-6%,-1%

# Molecules listed so far containing an aryl methoxy group (2):
SMILES,VACV mCherry inh,Vaccinia Venus
COc1cccc(N2CCN(C(=O)C3CCN(S(=O)(=O)c4cccc5nonc45)CC3)CC2)c1,1%,-6%
COc1cccc(C(=O)NCC(=O)NCc2cc(=O)n(C)c(=O)n2C)c1,i,-6%

# Next section
SMILES,VACV mCherry inh,Vaccinia Venus
OC(c1ccc(F)cc1)C(c1ccccc1)N1CCOCC1 (configuration not stated),-1%,-10%
CCCC(=O)Nc1ccc(N2CCN(C(=O)c3cc4ccccc4o3)CC2)cc1,-1%,1%
Cc1cc(NC(=O)Nc2nnc(N3CCCCCC3)s2)ccc1Br,-10%,-12%
O=C(Nc1ccc2c(c1)OCCO2)C1CCN(C(=O)c2ccc([N+](=O)[O-])cc2)CC1,i,-8%
Oc1ccc(-n2cccc2/C=N/n2cnnc2)cc1,i,-21%
COc1cccc(NCc2nnc(SC(C(=O)N(C)C)c3ccccc3)n2C2CCCCC2)c1 (configuration not stated),3%,-11%
CCCNC(=O)C1(C)CCCN(Cc2cccc(C(F)(F)F)c2)C1 (configuration not stated),30%[activator],-3%
CCc1c(O)c(/C(C)=N\O)c(=O)n(-c2ccccc2)c1-c1ccccc1,-27%,-25%
C[C@H]1COC(=O)[C@H](Cc2ccc(F)cc2)CC/C=C/C[C@@H](CC(=O)N[C@@H](CO)Cc2ccccc2)C(=O)N1,?,-25%
CCCn1c(=O)c2ccccc2n2c(SCc3nc4ccccc4s3)nnc12,i,-6%
c1ccc(N2CCOCCOCCOCCOCC2)cc1,i[7.34 µM],1%[7.34 µM]
COc1ccc(CCNC(=O)CNC(=O)Cn2ccc3ccccc3c2=O)cc1OC,7%,-8%
Cc1cccc(/C=C(\C(=O)C(=O)O)c2ccc3ccccc3n2)c1,-12%,-12%
COc1cccc(N=Cc2c[nH][nH]c2=O)c1,-6%,-1%
CC[C@@H]1CCC[C@@H](O)[C@@H](C)C(=O)O[C@H](C)[C@@H](C)C/C=C(C)/C(OC)=C\C(=O)N(C)C([C@@H](C)CC)C(=O)N(C)[C@@H](C(C)C)C(=O)N(C)[C@@H](COC)C(=O)N2CCC[C@H]2C(=O)N(C)[C@@H](C(C)C)C(=O)N2CCC[C@H]2C(=O)O1 (some centres not stated),?,?
CCCOc1ccc(-c2nnn(CC(=O)Nc3cccc(C(=O)OC)c3)n2)cc1,-19%,-1%
Cc1cccc(N2CCN(C(=O)C3CCCN(S(=O)(=O)c4ccc5c(c4)oc(=O)n5C)C3)CC2)c1C (configuration not stated),?,?
COc1cc2c(cc1OC)/C(=C/C(=O)c1ccc(C)cc1)NCC2,-9%,-15%
CCOc1ccc(CNC(=O)CCC(=O)N2CCSc3ccccc32)cc1,-7%,-9%&-6%
CCc1cc2c(=O)n(-c3ccc(Br)cc3)cnc2s1,-15%,-6%
Cc1c(C(=O)Nc2ccc(F)c(F)c2)oc2ccc(S(=O)(=O)N3CCC4(CC3)OCCO4)cc12,-24%,?
Cc1ccc(NC(=O)CN(C)CC(=O)Nc2sc3c(c2C(N)=O)CCC3)cc1,-12%,-22%
COc1ccc(Br)cc1/C=N/NC(=O)CNC(=O)/C=C/c1ccccc1,nt,-22%
Cc1ccc(-c2nc(-c3ccccc3)no2)c(Cl)c1,-11%,-22%

# The closing five compounds of the section above lead into the next:
SMILES,VACV mCherry inh,Vaccinia Venus
CCc1cc2c(=O)n(-c3ccc(Br)cc3)cnc2s1,-15%,-6%
Cc1c(C(=O)Nc2ccc(F)c(F)c2)oc2ccc(S(=O)(=O)N3CCC4(CC3)OCCO4)cc12,-24%,?
Cc1ccc(NC(=O)CN(C)CC(=O)Nc2sc3c(c2C(N)=O)CCC3)cc1,-12%,-22%
COc1ccc(Br)cc1/C=N/NC(=O)CNC(=O)/C=C/c1ccccc1,nt,-22%
Cc1ccc(-c2nc(-c3ccccc3)no2)c(Cl)c1,-11%,-22%
COc1ccccc1Nc1nc(N)nc(CSC(=S)N2CCC(C)CC2)n1,-19%,-20%
O=C(CCC(=O)OCC(=O)c1ccccc1)NC1CCCCC1,-13%,2%
O=C(CN1CCN(S(=O)(=O)/C=C/c2ccccc2)CC1)NCC(F)(F)F,3%,-8%
Cc1cccc(C(=O)N2CCN(S(=O)(=O)N3CCCCCC3)CC2)c1,-2%,-5%
COc1ccc(/C=C2/C(=O)N(c3ccccc3)N=C2C)cc1Br,-17%,-13%
O=[N+]([O-])c1ccc(Sc2cccc[n+]2[O-])c2nonc12,?,107%[activator]
Cc1cc(=O)[nH]c(SCC(=O)N2CCN(S(=O)(=O)c3ccccc3)C2)n1,i,-8%
O=C(c1ccc(F)cc1)N1CCN(c2ccc([N+](=O)[O-])cc2-n2cccc2)CC1,-23%,-20%
COC(=O)[C@@]12C[C@@H](CC(=O)NCc3ccc(OC)c(OC)c3)C(=O)N(Cc3ccccc3)C1=CCC(C)(C)C2,-19%,-30%
COc1ccccc1NC(=O)c1ccc2nsnc2c1,46%[activator],3%
O=C1C=C(c2ccoc2)N2CCC[C@H]2C1,i,-17%
CCN(CC)CCN1C(=O)C2C(C(=O)Nc3ccc(C(C)C)cc3)C3C=CC2(O3)C1C(=O)NC1CCCCC1 (configuration not stated),10%,-7%
Cc1ccc(COn2c(-c3ccc(Cl)cc3Cl)nc3ncccc32)cc1,?,?
OC(c1ccc2c(c1)OCO2)c1nccc2ccccc12 (configuration not stated),i,-3%
CCc1ccc(N2C(=O)C3ON(c4ccccc4)C(c4ccco4)C3C2=O)cc1 (configuration not stated),nt,-22%
COc1ccc(NC(=O)c2c(NCc3cccs3)sc3c2CCC(C)C3)c(OC)c1 (configuration not stated),-14%,-14%
O=C(/C=C\c1ccccc1)NCC(=O)N/N=C/c1ccc(O)cc1O,?,-14%
Cc1nnc(N/N=C/c2ccc([N+](=O)[O-])cc2)n1N,-19%,-3%
COc1cc(OC)cc(C(=O)Nc2ccn(C)n2)c1,-9%,-12%
CCSc1nc(-c2ccccc2)nc(C(Cl)Cl)n1,?,10µM*
Cc1ccc(C)c(NC(=O)c2cc[n+](C)cc2)c1,-17%,-10%
COc1ccccc1N(CC(=O)NCCC1=CCCCC1)S(=O)(=O)c1ccccc1,?,-18%
Cc1cc(Cl)n2nc(C)c(-c3ccc(Cl)cc3)c2n1,?,14µM*
O=C(CCC1COc2ccccc2O1)N1CCCC1 (configuration not stated),nt,-21%
O=C(CSc1ccc(F)cc1)Nc1nnc(-c2ccco2)o1,-1%,-13%
Cc1ccc(NC(=O)Cn2c(-c3ccc4c(c3)OCO4)cn(-c3ccccc3)c2=O)cc1,-3%,-9%
O=C(N/N=C/C=C/c1ccco1)c1cccc([N+](=O)[O-])c1,i,-12%
CCCC(C)n1[nH]c(=O)c2c1NC(=O)CSC2c1ccccc1 (configuration not stated),-9%,-10%
O=c1[nH]c2cccc(Cl)c2n(CCNc2ncc(C(F)(F)F)cc2Cl)c1=O,nt,?
N#Cc1ncn(-c2ccc(Oc3ccccc3)cc2)c1N,-6%,-14%
CCOc1ccccc1NC(=O)c1ccc2nccnc2c1,-8%,-6%
CS(=O)(=O)c1cc(N2CCOCC2)ccc1CNC[C@H]1O[C@@H](n2cnc3c(=O)[nH]c(N)nc32)[C@H](O)[C@@H]1O,13%,2%
O=C1c2cccc(O)c2C(=O)c2c(O)cc(CO)cc21,32%[activator],27%
Cc1ccc(N2CC(C(=O)NCc3ccccn3)CC2=O)cc1 (configuration not stated),-1%,-12%
COC(=O)Cn1cnc2ccccc2c1=O,nt,-11%
Cc1cc(CNC[C@H]2O[C@@H](n3cnc4c(N)ncnc43)[C@H](O)[C@@H]2O)no1,-3%,-9%

# 3 compounds picked at random from those above, as already listed:
SMILES,VACV mCherry inh,Vaccinia Venus
Oc1ccc(-n2cccc2/C=N/n2cnnc2)cc1,i,-21%
COc1cccc(N2CCN(C(=O)C3CCN(S(=O)(=O)c4cccc5nonc45)CC3)CC2)c1,1%,-6%
COc1cc2c(cc1OC)/C(=C/C(=O)c1ccc(C)cc1)NCC2,-9%,-15%

# (continued)
SMILES,VACV mCherry inh,Vaccinia Venus
O=C(CCN1C(=O)c2ccc([N+](=O)[O-])cc2C1=O)Nc1cccc(O)c1,-11%,-2%
COc1ccc(NC2CS(=O)(=O)CC2NCc2ccco2)cc1 (configuration not stated),-2%,-1%
Cc1nc2ccccc2n1CCOc1ccc([N+](=O)[O-])cc1,-5%,-7%
Cc1cc(C(=O)O)c2c(=O)n(C)c(=O)n(C)c2n1,1%,1%
Cc1ccc2c(c1)N(CCC(=O)NC(C)C)C(=O)CO2,-13%,-5%
COc1ccc(-c2nc(C(N)=O)c3[nH]c(=O)n(-c4ccccc4OC)c3n2)c(OC)c1,-25%,?
CC(=O)N1CCN(S(=O)(=O)c2c(F)cc(F)c(Cl)c2F)CC1,-5%,-16%
O=C(NCCc1cccc(Cl)c1)c1cc2ccccc2oc1=O,-14%,-7%
CCOC(=O)CNC(=O)c1cn(CC)c(=O)c2cc(OC)c(OC)cc12,-6%,1%
COc1ccc(-c2cc(C(=O)Nc3cc(C)ccc3O)no2)cc1OC,-7%,-2%
COc1ccc(OCC(=O)NNC(=O)C(=O)N2CCCC2)cc1,i,-13%
Cc1ccc2c(c1)CC1(CN2C)C(=O)OC(C)(C)OC1=O,7.1µM*,10µM*
Cc1cc(C)n2nc(SC(C)C(=O)Nc3ccccc3F)nc2n1 (configuration not stated),-18%,-8%
O=C(COc1nc2ccccc2nc1N1CCOCC1)N1CCc2ccccc21,-22%,-8%
Cc1ccc(S/C=C\C(=O)c2ccccc2)cc1,-12%,-12%
CCOc1ccc2nc(NC(=O)c3nc(SC)ncc3Cl)sc2c1,-5%,7%
O=C(COC(=O)c1ccccc1F)NNC(=O)c1ccccc1,-6%,2%
CN(C)c1ccc(/C=C(/C#N)C(=O)NCc2ccccc2)o1,-17%,-5%
COc1ccc(S(=O)(=O)N2CCCC(C(=O)N3CCCC3)C2)cc1OC (configuration not stated),-15%,-9%
Cc1cccc2cc(CN(Cc3ccco3)C(=O)c3cccs3)c(=O)[nH]c12,nt,0%
COCCn1c(SCC(=O)Nc2cc(C)on2)nnc1-c1ccco1,-5%,-18%
c1csc(C2Nc3ccccc3-c3nc4ccccc4n32)c1 (configuration not stated),-19%,-15%
COc1cccc(NC(=O)C2(C)CCN2Cc2ccc(-c3ccccc3)o2)c1 (configuration not stated),i,-4%
CCOc1ccc(C(=O)Nc2ccc(-c3cc4ccccc4oc3=O)cc2)cc1Br,8%,7%
Cc1cccc(-c2nc(CSCC(=O)N3CCN(Cc4ccc5c(c4)OCO5)CC3)c(C)o2)c1,nt,-23%
COc1cc(NC(=O)C2CCN(S(=O)(=O)c3ccc4[nH]c(=O)oc4c3)CC2)cc(OC)c1,i,-17%
CCOC(=O)c1c(C)[nH]c(C=Nc2ccc(OC)cc2)c1O,nt,-10%
CCC(=O)N1CCc2cc(Br)cc(S(=O)(=O)N3CCCC(C(=O)Nc4ccc(OC)cc4OC)C3)c21 (configuration not stated),i,-6%
O=C(C1COc2ccccc2O1)N1CCN(c2nc3c(F)cc(F)cc3s2)CC1 (configuration not stated),i,-12%
CCOC(=O)C1CCCN(C(=O)c2ccc(-c3ccc([N+](=O)[O-])cc3)o2)C1 (configuration not stated),-9%,4%
Cc1cc(=O)[nH]c(N/N=C/C=C/c2ccccc2)n1,i,-15%
COCCSc1nnc(NS(=O)(=O)Cc2ccccc2)s1,-1%,6%
O=C(OC[C@@H]1CCCN2CCCC[C@H]12)c1cc2ccccc2oc1=O,-16%,-6%
Cc1cccc(N(CC(=O)NCc2ccco2)C(=O)CCC(=O)Nc2nccs2)c1,-17%,-10%
CC(C)CC1NC(=O)N(CC(=O)Nc2ccc(OCc3ccccc3)cc2)C1=O (configuration not stated),-26%,-21%
CN(CC(=O)NCc1cccc(F)c1)C(=O)c1ccco1,-14%,-13%
CN(C)CCN(Cc1ccccc1)c1ccccn1,i,-5%&0%
CC[N+](C)(C)Cc1ccccc1Br,-13%,-7%
COc1cc(-c2cc(N3C(=O)Nc4ccccc4N3O)n[nH]2)cc(OC)c1OC,i,-10%
COc1ccc(S(=O)(=O)N2CCC(C(=O)NCCN3CCOCC3)CC2)cc1OC,-7%,-7%
N#CCc1c(C#N)c(N)nc(N2CCCC(CO)C2)c1C#N (configuration not stated),4%,2%
O=C(NCc1ccccc1)C(C1CC1)n1c(-c2cccs2)nc2ccccc21 (configuration not stated),-14%,-10%
O=C(NCCc1ccco1)c1ccc(OCc2cn3ccccc3n2)cc1,-13%,-1%
